Mtb hypoxia rep = Mtb hypoxia fluorescent reporter inhibition; fluorescence inhibition, % (no concentration beside the values); 300,000 tested, 0.1% active; M. tuberculosis hypoxia-regulated fluorescent reporter, fluorescence; AID 1159583;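 active means 35 to 45% if threefold the growth effect, above 45% if 1.5-fold the growth effect; inactive means the rest, general growth blockers included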;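 further: wells of about 50 µL received 100 nL stock; 0% = vehicle wells and 100% = reference inhibitor wells; whole bacteria with a GFP reporter of the hypoxia response; strong numbers were not always called active; many hits fall short of the cut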
Sa ugtP lethal = growth inhibition of S. aureus ugtP deletion strain. 330,000 tested, 0.54% active. S. aureus RN4220 ugtP deletion, OD600 growth, 16 h; some inactives read as strong as hits. growth inhibition, % (no concentration beside the values);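 active means z-score under -3 and OD600 up to 0.15 on both plates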;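 further: plate controls were untreated wells for no effect and antibiotic for full effect; wells of about 80 µL received 100 nL stock; the first replicate is given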
RN4220 kill = S. aureus RN4220 growth inhibition | OD600, 16 h | inhibition, % (test concentration not listed) | 330,000 tested, 0.33% active;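 active means z-score of -3 or lower and OD600 up to 0.18 on both plates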;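 further: plate controls were untreated cells for no effect and reference antibiotic for full effect; stock transfer was 100 nL into about 80 µL; one replicate is shown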
BJeLR lethal = kills HRASV12-expressing BJeLR cells. BJeLR (HRASV12) viability, CellTiter-Glo ATP luminescence, 48 h; reference of the scale not given here. inhibition, % (concentration not given with the values). 300,000 tested, 0.17% active;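 active means replicate mean above 50%; inconclusive means above 50% but judged a plate artefact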;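 further: 50 nL library stock added to about 25 µL; numbers are from one replicate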
Bead autofluor = counter-screen for toxin protease inhibitors: compound fluorescence; AID 624483; compound autofluorescence counterscreen, microsphere flow cytometry; active compounds read high; fluorescence intensity (no concentration beside the values); 360,000 tested, 3.1% active;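 active means at least 3 SD above the mean of all compounds, about 16000 in these data; inconclusive means too few beads counted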;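 further: 100 nL of 1 mM stock went into each well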
PrP UTR inh = suppresses PrP 5' UTR mRNA reporter expression; 340,000 tested, 0.35% active; cell-based PrP 5' UTR mRNA reporter, plate reader; AID 488862; inhibition, % (no concentration beside the values);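 active means every replicate at 50% or more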;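 further: 0 = median of the neutral control wells; tested in H4 reporter cells; numbers are from one replicate; inactives centre near -14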
Mtb hypoxia rep growth = also measured in Mtb hypoxia rep; calls as there; growth inhibition, %; measured here: M. tuberculosis growth (absorbance);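 0% = vehicle and 100% = reference antibiotic; read after six days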
The depositor's hits bear a star; u = inconclusive; x = no result given.

SMILES | Mtb hypoxia rep | Mtb hypoxia rep growth | Sa ugtP lethal | RN4220 kill | BJeLR lethal | Bead autofluor | PrP UTR inh
O=C1/C(=C\c2ccccc2)SC(=S)N1CCC(=O)N1CCCCC1CCO (configuration not stated) | 6.7 | 1.5 | 6.0 | 2.5 | 4.2 | 5038 | -8.4
CC(=O)Oc1ccc2c(=O)c(C=Nc3cc(=O)[nH]c(=S)[nH]3)coc2c1 | 5.9 | 7.3 | 9.9 | 3.2 | x | x | x
CCOP(=O)(OCC)c1nc(-c2cccc3ccccc23)oc1N1CCOCC1 | 3.3 | -3.1 | -12.8 | -2.0 | 7.5 | 2585 | -10.7
Cc1cc(C)c(NC(=O)Cn2nc(-c3ccccc3)nc2-c2ccccc2)c(C)c1 | 10.4 | 9.6 | -1.4 | 3.4 | 17.7 | 2439 | -19.5
COc1ccc(OC)c(S(=O)(=O)Nc2ccccc2C(=O)O)c1 | 10.6 | 8.6 | 1.0 | -0.4 | -11.5 | 7764 | -28.8
O=C(NCc1ccccc1)c1ccc(CS(=O)(=O)Cc2ccccc2F)o1 | 4.7 | 7.3 | 5.1 | 1.0 | 18.0 | 4513 | -24.2
Cc1ccc(N(Cc2ccco2)C(=O)c2ccc(N3CCCCC3)c([N+](=O)[O-])c2)cc1 | -1.9 | -1.3 | 65.7 | -6.9 | 1.2 | 1887 | -18.1
Cc1ccc([C@H]2C(C(=O)O)=CC[C@@H](c3ccc(C)cc3)N2S(=O)(=O)c2ccccc2C)cc1 | -0.3 | 9.8 | -15.8 | 21.4 | x | 3485 | -15.0
Cc1ccccc1N1CCN(C2CCCN(C(=O)CCC(=O)N(C)C)C2)CC1 (configuration not stated) | 14.1 | -2.5 | 8.2 | 6.3 | -2.5 | 3818 | -19.0
CCC(=O)Nc1nn(CC(C)C)c2nc3ccc(C)cc3cc12 | -3.2 | 4.7 | 1.4 | 0.7 | 1.6 | 3763 | -22.3
CCNC(=O)C(=Cc1cccc([N+](=O)[O-])c1)NC(=O)c1ccc(C)cc1 | 2.7 | -8.2 | 0.6 | 3.4 | x | x | x
CC(C)(C)C(=O)NC1CCN(S(C)(=O)=O)CC1 | 2.5 | 3.2 | 4.6 | 3.3 | 14.0 | 11370 | 1.0
Cc1ccc(S(=O)(=O)N=C(Sc2ccccc2)c2ccccc2)cc1 | 0.9 | -0.8 | 6.9 | -8.7 | x | x | x
COC(=O)c1ccc(-n2nnnc2SC)cc1 | 2.9 | 2.6 | 4.5 | 6.5 | -6.2 | u | -11.8
Cc1cc(OCC(=O)N(C)C2CCCCC2)cc(C)c1Cl | 4.2 | 9.0 | 4.4 | 1.0 | -7.1 | 6695 | -52.3
CNC(=S)NNC(=O)c1cccn(Cc2cccc(C(F)(F)F)c2)c1=O | 13.1 | 6.6 | 1.7 | 0.0 | -14.1 | 3716 | -9.4
CCN1C(=O)C(=O)N(CC(=O)Nc2ccccc2Oc2ccccc2)C1=O | 11.9 | 12.3 | 9.4 | 4.7 | -6.9 | u | -9.5
Cn1c(CN2CCCC2)nc2cc(NC(=O)COc3ccc(Cl)cc3)ccc21 | 2.4 | 2.0 | 2.4 | -1.0 | 3.2 | 13183 | -9.2
CCOC(=O)C1=C(C)Nc2ccccc2N=C1NC(=O)c1oc2ccccc2c1COC | 2.0 | -0.8 | 1.8 | 4.1 | x | 2988 | -13.5
CC(C)OCCCN1C(=O)c2ccccc2C1C(=O)NC1CCCCC1 (configuration not stated) | 3.0 | 3.2 | 6.6 | 1.6 | 10.0 | 9849 | -4.7
CCOC(=O)c1c(-c2ccsc2)csc1N | 3.3 | 4.3 | 13.6 | 20.9 | -4.5 | 2140 | -6.0
COc1ccc(NC(=O)C(C)SCc2ccccc2)cc1 (configuration not stated) | 6.4 | 9.8 | 9.7 | 4.6 | -4.9 | 4279 | -31.7
NC(=O)NN=Cc1coc2ccc(O)cc2c1=O | 0.0 | -12.1 | -2.4 | 4.8 | x | x | x
COc1cc(O)c(C(CCN2CCN(c3ccccc3)CC2)c2ccc3c(c2)OCO3)c(OC)c1 (configuration not stated) | -0.8 | 4.5 | -15.9 | 4.3 | -5.4 | 3627 | -38.3
Cc1cc(C)cc(OCC(=O)N2N=C(c3cccnc3)CC2(O)C(F)(F)F)c1 (configuration not stated) | 2.3 | -2.5 | -5.5 | 10.3 | 3.3 | 2228 | -4.3
COc1ccc(C(=O)Nc2cccc(NC(=O)c3cccs3)c2)cc1 | 14.7 | 18.0 | 10.4 | 23.0 | 5.1 | 3971 | -28.6
O=C(O)c1cccc(N2C(=O)CSC2c2c(F)cccc2Cl)c1 (configuration not stated) | 1.0 | 1.3 | 8.0 | 3.9 | -2.3 | 6479 | -18.6
O=C(Nc1ccc(Cl)cn1)C1COc2ccccc2O1 (configuration not stated) | 4.7 | 0.0 | 8.9 | 7.6 | 1.2 | 3769 | -59.2
O=C(Nc1nnc(SCCN2CCOCC2)s1)C1CC(=O)N(c2ccc(F)cc2)C1 (configuration not stated) | -1.1 | 5.9 | -5.2 | 1.5 | -0.9 | 5858 | -18.1
CCCC(=O)OCC(=O)Nc1cc(C(C)(C)C)nn1-c1ccccc1 | x | x | 4.4 | 3.6 | x | 3171 | -19.6

Some entries already given with just Bead autofluor.
| SMILES | Bead autofluor |
| --- | --- |
| COc1ccc(C(=O)Nc2cccc(NC(=O)c3cccs3)c2)cc1 | 3971 |
| O=C(O)c1cccc(N2C(=O)CSC2c2c(F)cccc2Cl)c1 (configuration not stated) | 6479 |
| O=C(Nc1ccc(Cl)cn1)C1COc2ccccc2O1 (configuration not stated) | 3769 |

(further entries)
SMILES | Mtb hypoxia rep | Mtb hypoxia rep growth | Sa ugtP lethal | RN4220 kill | BJeLR lethal | Bead autofluor | PrP UTR inh
C=CCOc1ccccc1CNCCNC(=O)c1nonc1N | 9.7 | 8.5 | 5.5 | 8.9 | -1.3 | 4549 | -9.4
CC1CC(C)CN(CCCNC(=O)c2cc3c(=O)[nH]c4ccccc4c3n2C)C1 (configuration not stated) | 15.1 | 3.4 | 8.2 | 7.6 | 2.4 | 3394 | -15.8
CC(=NNC(=O)C1(C)CC1(Br)Br)c1cccc(NC(=O)C(C)(C)C)c1 (configuration not stated) | 17.6 | 11.5 | 17.6 | -4.6 | x | x | x
Cc1cccc(Nc2nc(N3CCCCC3)nc(N3CCCCC3)n2)c1 | 1.5 | -2.4 | 46.2 | -2.2 | 17.9 | 9824 | -22.6
CCOC(=O)C1=CN(Cc2cccc(F)c2)S(=O)(=O)NC1c1ccc(F)c(Cl)c1 (configuration not stated) | -5.9 | -2.2 | -27.0 | -3.4 | x | 3603 | -36.2
COc1ccccc1/C=N/NC(=O)c1ccc(Br)cc1 | x | x | x | x | -1.5 | 2294 | -9.9
COc1ccc(C2(CNC(=O)Cc3ccccc3)CCCC2)cc1OC | 3.6 | 5.5 | 1.8 | 4.0 | -0.2 | 10196 | -11.4
CS(=O)(=O)NCCSCc1c(F)cccc1Cl | 5.3 | 7.5 | -3.7 | 3.7 | 0.4 | 2553 | -17.9
CN(C)C(=S)Nc1ccc2c(c1)OCO2 | 5.7 | 5.9 | 12.5 | 2.3 | -0.7 | 4289 | -12.0
Cc1ccc2oc(=O)n(CC(=O)O)c2c1 | x | x | 4.7 | 1.7 | 0.8 | 6155 | -32.2
O=C(CCC(=O)N(CC(=O)NC1CCCC1)c1ccccc1F)Nc1nccs1 | 8.9 | 8.6 | 8.0 | 1.9 | -0.6 | 5950 | -12.7
Cc1nnc(N/N=C/c2ccco2)n1N | x | x | x | x | 3.0 | 3904 | -7.3
O=C(CCCCCn1c(=O)[nH]c2ccsc2c1=O)N1CCN(C2CCCCC2)CC1 | x | x | 4.1 | 3.4 | x | 6298 | -1.4
CC(C)c1onc(C(=O)N(C)C2CCCCC2)c1[N+](=O)[O-] | 20.3 | 16.6 | 4.8 | 7.8 | 0.2 | 2047 | -19.4
CCc1ccccc1NC(=S)N(CCCN1CCOCC1)Cc1cccs1 | 2.2 | 15.6 | 5.6 | 6.3 | 5.8 | 10681 | -15.0
C=CCSc1nnc(-c2ccccc2N=Cc2c(C)[nH]n(-c3ccccc3)c2=O)c(=O)[nH]1 | x | x | 6.4 | 6.6 | 14.5 | 3809 | -13.8
CCNCC(O)c1cccc(O)c1 (configuration not stated) | 1.9 | 12.3 | 1.7 | 8.4 | -5.4 | 6194 | -18.4
COc1ccccc1NC(=O)CCN1CCN(c2ccc(Cl)cc2)CC1 | -7.8 | -1.0 | 5.7 | 6.2 | -6.2 | 4097 | -30.7
Fc1ccc(CSc2nsc(SCc3ccc(F)cc3)n2)cc1 | x | x | x | x | -5.4 | 2493 | -9.6
COC(=O)CN(C)C(=O)c1ccccc1OC1CCN(S(C)(=O)=O)CC1 | -1.2 | -4.0 | 9.7 | 2.4 | -2.1 | 4671 | -15.3
CCSc1nc2nc(C)cc(C)n2n1 | x | x | -3.7 | 0.7 | -1.2 | 4532 | -20.2
CCN1C(=O)[C@H]2[C@H]3CN=C(SCc4ccccc4)N3[C@@](Cc3ccccc3)(C(=O)OC)[C@H]2C1=O | -1.0 | -1.3 | -11.1 | 5.8 | x | 2843 | -17.0
COc1ccc(C(=O)N/C(=C/c2cccc3ccccc23)C(=O)NCCc2c[nH]c3ccccc23)cc1OC | -1.1 | 4.7 | -0.8 | 3.9 | -4.8 | 2942 | -5.2
Cc1cccc(NC(=O)CSCC(=O)NNC(=O)c2ccoc2C)c1 | 2.3 | -36.9 | -5.5 | 0.0 | -1.5 | x | -19.9
CCn1nccc1C(=O)Nc1ccc(C)c(C)c1 | 3.6 | 11.4 | 4.3 | 3.9 | 4.1 | 4198 | -41.5
CNS(=O)(=O)c1cccc(C(=O)OCC(=O)Nc2cc(F)ccc2F)c1 | -1.8 | -2.8 | 3.8 | -0.3 | 1.1 | 4948 | -35.1
CCOC(=O)c1nnc2cc(C)nn2c1C | 3.6 | 2.6 | 2.3 | 1.5 | -3.4 | x | x
Cc1ccc(-n2nnc3c(=O)n(CC(=O)NCC4CCCO4)cnc32)cc1 (configuration not stated) | -12.2 | -4.2 | 4.0 | 1.8 | -6.7 | 10525 | -4.5
COc1ccc(-c2csc(NC(=O)C3CSC4(C)CCC(=O)N34)n2)cc1OC (configuration not stated) | 3.6 | -6.4 | -2.3 | 1.1 | -10.9 | 4453 | -13.0
O=C(c1ccc(S(=O)(=O)N2CCCC2)cc1)N1CCCc2ccccc21 | x | x | -2.3 | 6.2 | 8.1 | 3630 | -26.7
CC12CCC(=O)N1C(C(=O)NNC(=O)COc1cccc(C(F)(F)F)c1)CS2 (configuration not stated) | 0.2 | 2.4 | -0.5 | 1.0 | 3.4 | u | -29.6
O=C(OCC(=O)N1CCCCCC1)c1ccc(S(=O)(=O)N2CCOCC2)cc1 | 6.8 | -1.0 | 11.3 | 4.0 | -5.3 | 4596 | -15.1
CN(CC(=O)Nc1cccc(F)c1)C(=O)c1cn(-c2ccccc2)nc1-c1ccccc1 | 1.5 | 4.9 | -7.9 | -7.0 | 2.6 | 5399 | -19.4
Cc1c(C(=O)N2CCOCC2)c(S(=O)(=O)Nc2ccc(OC(F)(F)F)cc2)c(C)n1C | 5.1 | -2.7 | 4.3 | 2.0 | 9.8 | 5177 | -20.5
O=C(COC(=O)c1n[nH]c(=O)c2ccccc12)NC1CCCCC1 | 2.2 | 9.5 | 1.3 | -0.5 | x | u | -15.8
Cc1cccc(N=C(N2CCOCC2)P(=O)(N2CCOCC2)N2CCOCC2)c1 | 4.6 | 2.8 | -0.2 | 2.1 | -2.6 | 11496 | 10.7
CCN1CCN(S(=O)(=O)c2ccc(OC)c3ccccc23)CC1 | x | x | x | x | -1.3 | 4013 | -24.8
COc1cc(-c2nnc(-c3ccc(S(=O)(=O)c4ccccc4)cc3)o2)cc(OC)c1OC | x | x | 1.4 | -2.7 | -2.2 | 2384 | -7.8
Cc1nnc(-c2ccccc2)c[n+]1[O-] | 4.4 | 3.9 | 10.3 | -0.9 | -11.2 | 3330 | -11.7
Cc1cccc(NC(=O)CNc2cc(C)ccc2C)c1 | -1.9 | -6.9 | -4.0 | 0.3 | -1.2 | x | -12.6
Cc1ccc(CS(=O)(=O)c2ccccc2-c2nnc(-c3ccc(Cl)cc3)o2)cc1 | x | x | -1.8 | -5.9 | 2.3 | 2316 | -15.9

Assay outcomes: PubChem, several laboratories
